Six1-Eya2 inh = Six1/Eya2 interaction inhibition; Q15475+O00167; AlphaScreen GST-Six1/His-Eya2 binding, biochemical; hits give low values; control for the full effect not named in the record; activity change, % (concentration not given with the values); actives 0.56% (n = 360,000); in the data active = activity change below about -65%; inconclusive = about -30% to -65%; inactive = above about -30%; note: % is set by controls: 0 for no effect and ±100 for the full control effect
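Homogeneous AlphaScreen proximity assay pairing GST-Six1 with His-tagged Eya2 (added as 5X mix: 250 nM and 500 nM) in 50 mM Tris pH 8.0, 300 mM NaCl, 1 mM TCEP. Glutathione donor and nickel acceptor beads; 1 h, 37 °C, dark.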
D2 ag = human D2 receptor agonism in beta-arrestin assay. actives 0.084% (n = 360,000). AID 624465. activation, % (concentration not given with the values). P14416. DiscoveRx PathHunter D2 beta-arrestin, luminescence, 90 min; 100% = 57 uM dopamine signal; in the data active = activation above about 40%; inconclusive = about 15% to 40%; inactive = below about 15%; note: compound concentration not given in the record; the text of the record calls up to 30% inactive
Target sequence (P14416 whole entry, looked up): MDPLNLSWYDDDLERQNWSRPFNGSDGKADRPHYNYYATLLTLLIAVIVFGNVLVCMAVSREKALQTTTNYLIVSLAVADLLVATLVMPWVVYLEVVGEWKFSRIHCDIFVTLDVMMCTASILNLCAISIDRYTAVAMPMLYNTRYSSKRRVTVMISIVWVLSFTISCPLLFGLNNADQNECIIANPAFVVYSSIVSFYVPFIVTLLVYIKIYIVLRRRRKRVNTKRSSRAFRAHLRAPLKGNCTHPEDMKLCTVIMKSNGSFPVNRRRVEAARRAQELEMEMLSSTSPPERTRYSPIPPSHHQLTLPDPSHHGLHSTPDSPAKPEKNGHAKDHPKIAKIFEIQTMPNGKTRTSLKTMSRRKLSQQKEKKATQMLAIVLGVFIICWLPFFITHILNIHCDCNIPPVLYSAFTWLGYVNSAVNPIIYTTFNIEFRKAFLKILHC
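DiscoveRx PathHunter D2 beta-arrestin cells (2,100/well) attached overnight, then compound-stimulated 90 min at 37 C in HBSS/10 mM HEPES/0.1% Tween-20 buffer; beta-galactosidase complementation read by luminescence after 1 h at ambient temperature. Dopamine 57 uM final (EC100) as control.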
TRPML1 ag = activates the human TRPML1 channel | TRPML1-expressing cells, Ca2+ dye fluorescence, FDSS; host cell line not named in the record; reference of the full effect not given here | activation, % (no concentration beside the values) | actives 0.12% (n = 410,000) | AID 624414; in the data active = activation above about 50%; inconclusive = about 30% to 50%; inactive = below about 30%; note: 0% is about no effect; the text of the record puts the active cut at 80%
Target sequence (Q9GZU1 whole entry, looked up): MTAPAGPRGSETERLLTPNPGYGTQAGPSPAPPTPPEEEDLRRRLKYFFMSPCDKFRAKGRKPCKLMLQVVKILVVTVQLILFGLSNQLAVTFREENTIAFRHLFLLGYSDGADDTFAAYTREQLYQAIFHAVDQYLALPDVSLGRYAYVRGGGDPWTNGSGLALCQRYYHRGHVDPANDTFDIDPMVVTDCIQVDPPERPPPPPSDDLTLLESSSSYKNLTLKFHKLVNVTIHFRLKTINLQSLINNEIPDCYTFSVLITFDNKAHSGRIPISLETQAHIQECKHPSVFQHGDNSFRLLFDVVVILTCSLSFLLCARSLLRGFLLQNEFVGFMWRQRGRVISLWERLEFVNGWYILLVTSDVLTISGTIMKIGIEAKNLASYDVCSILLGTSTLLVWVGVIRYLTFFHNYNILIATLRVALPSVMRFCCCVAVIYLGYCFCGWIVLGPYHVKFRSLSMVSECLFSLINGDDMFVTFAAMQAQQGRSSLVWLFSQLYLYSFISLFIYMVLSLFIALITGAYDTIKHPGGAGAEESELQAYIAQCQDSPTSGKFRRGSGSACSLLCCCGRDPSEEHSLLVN
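Cells: TRPML1-DL, 1X Tet inducer, ~16 h at 37 degrees C/5% CO2. Dye: ABD Ca8 no-wash + quencher, 45-90 min RT. Read: 10 s baseline, compound add, 110 s agonist phase; 54-4 EC80 (4uM final), 110 s antagonist phase.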
PINK1 modulator = changes PINK1 expression; actives 0.2% (n = 410,000); AID 624263; Potency, µM (titrated, usually from 76.6 µM), for the others: top-dose activation (PINK1 increase), usual class: activators; PINK1 immunofluorescence, high-content cytometry, 24 h; active = well fitted activation curve with a large enough effect; inconclusive = small, poorly fitted or top-dose-only effect; inactive = flat fitted curve, though single readings scatter; cell line not stated here;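 note: potency is the fitted concentration of half-maximal effect; % of control where 0% means no effect; nearly all actives have a fitted effect of over 65% in size; a mitochondrial uncoupler was the plate control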
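Readout is PINK1 immunofluorescence, quantified alongside mitochondrial, cell and nuclear markers by laser-scanning microplate cytometry. Cells from a stable line were exposed to compound titrations (5 concentrations) for 24 hours, with CCCP controls.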
CtBP-E1A blk = blocks the CtBP interaction with E1A; AlphaScreen GST-E1A/His-CtBP binding, 1536-well; hits give low values; control for the full effect not named in the record; actives 0.49% (n = 340,000); activity change, % (test concentration not listed); in the data active means activity change below about -65%; inconclusive means about -30% to -65%; inactive means above about -30%; note: % is set by controls: 0 for no effect and ±100 for the full control effect; compound concentration not given in the record
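Steps: dispense buffer (Tris pH 8.0, NaCl 300 mM, TCEP 1 mM, BSA, Tween 20); add 5X protein mix (GST-E1A, His-CtBP, 125 nM each); pin 23 nL compound; 2 h at 37 °C, dark; add 5X beads (50 ug/mL); 1 h; read.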
D2 PAM = potentiates the human D2 dopamine receptor allosterically; P14416; DiscoveRx D2 beta-arrestin cells, luminescence, 90 min; 100% = 57 uM dopamine signal; actives 0.23% (n = 360,000); potentiation, % (no concentration beside the values); AID 624464; active = potentiation of 50% or more; inconclusive = 30% to 50%; inactive = 30% or less;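 note: compound concentration not given in the record; tested on top of an EC20 dose of dopamine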
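D2 cells co-treated with compound plus 50 nM dopamine (EC20) for 90 min at 37 deg C to detect potentiation. Beta-arrestin recruitment was read as enzyme-fragment luminescence after 1 h at ambient temperature. Full response was set by 57 uM dopamine.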
The depositor's hits bear a star; & = joins results of further samples; [ ] = remark or other dose. This is a random part of the collection. Share with any hit: about 1.3%.

`COc1ccccc1/C=C/C(=C1/C(=O)N(c2ccccc2)N=C1C)c1ccc(C)cc1` gave Six1-Eya2 inh -6, D2 ag -4.4, TRPML1 ag -0.5, PINK1 modulator -0.1%, CtBP-E1A blk 0 and D2 PAM -6.
`Cc1ccc(CNC(=S)N(C)C)cc1` gave Six1-Eya2 inh 0, D2 ag 1.0, TRPML1 ag -0.4, PINK1 modulator -0.7%, CtBP-E1A blk 6 and D2 PAM -2.
`O=C(CSc1nnc2n1CCCCC2)NCc1ccccc1` gave Six1-Eya2 inh -1, D2 ag -0.7, TRPML1 ag -0.5, PINK1 modulator 1.7%, CtBP-E1A blk 4 and D2 PAM -9.
COc1ccc(CC(=O)OCC(=O)Nc2ccc(Br)cc2)cc1 was read as Six1-Eya2 inh 6, D2 ag -8.2, TRPML1 ag 1.1, PINK1 modulator 1.1% and D2 PAM -12.
For O=C(NNC(=O)c1ccc2ccccc2c1)c1ccc(Cl)cc1 the results were Six1-Eya2 inh 1, D2 ag -3.0, TRPML1 ag -0.2, PINK1 modulator 0.1%, CtBP-E1A blk 0 and D2 PAM -6.
`O=C(N/C(=C\c1ccccc1)C(=O)N1CCCCCC1)c1ccccc1` gave Six1-Eya2 inh 0, D2 ag 2.0, TRPML1 ag 0.6, PINK1 modulator -0.8%, CtBP-E1A blk 5 and D2 PAM -47.
COc1ccc(-c2ccc3oc(-c4ccc(OC)cc4)c(C#CC4(O)CCCCC4)c3c2)cc1 was read as Six1-Eya2 inh 1, D2 ag -2.3, TRPML1 ag -0.1, PINK1 modulator 2.1%, CtBP-E1A blk 5 and D2 PAM -6.
Screening O=C1CN2Cc3c(ccc(Cl)c3Cl)N=C2N1 returned Six1-Eya2 inh 1, D2 ag -6.5, TRPML1 ag -0.5, PINK1 modulator -0.7%, CtBP-E1A blk 9 and D2 PAM -7.
`C=C1N(c2ccc(Cl)cc2)C(=O)OC1(C)C` gave Six1-Eya2 inh 14, D2 ag -2.8, TRPML1 ag 0.3, PINK1 modulator -1.5%, CtBP-E1A blk 2 and D2 PAM -4.
For Cc1nc2nc[nH]n2c(=O)c1CCC(C)C the results were Six1-Eya2 inh 5, D2 ag 0.8, TRPML1 ag 2.9, PINK1 modulator -1.5%, CtBP-E1A blk -3 and D2 PAM -3.
Screening COc1cc(OC)cc(C(=O)Nc2ccc(Nc3ccccc3)cc2)c1 returned Six1-Eya2 inh -4, D2 ag -3.5, PINK1 modulator 1.6% and D2 PAM 8.
Cn1c(SCC(=O)NNC(=S)Nc2ccccc2)nnc1-c1ccccc1 was read as Six1-Eya2 inh -1, D2 ag -12, TRPML1 ag 0.4, PINK1 modulator 0.2%, CtBP-E1A blk 2 and D2 PAM -16.
Cn1cc(Br)c(C(=O)NNC(=O)Nc2ccccc2C(F)(F)F)n1 was read as Six1-Eya2 inh -5, D2 ag 12, TRPML1 ag -0.1, PINK1 modulator 0.5% and D2 PAM -7.
`O=C(NCCCl)C1Cc2c(ccc3ccccc23)O1` (configuration not stated) gave Six1-Eya2 inh 2, D2 ag -14, TRPML1 ag -0.9, PINK1 modulator 0.5%, CtBP-E1A blk 8 and D2 PAM -5.
Screening Cc1ccc(-n2cc[nH]c2=S)c(C)c1 returned Six1-Eya2 inh 1, D2 ag -3.7, TRPML1 ag -0.9, PINK1 modulator 0.6%, CtBP-E1A blk 6 and D2 PAM -13.
`Nc1c2c(nn1-c1ccc(C(=O)O)cc1)CNC2` gave Six1-Eya2 inh 1, D2 ag -5.8, TRPML1 ag -0.2, PINK1 modulator 1.3%, CtBP-E1A blk 10 and D2 PAM -2.
Screening Cc1ccc(S(=O)(=O)N(C)C[C@@H]2OCCCC[C@H](C)Oc3ccc(NC(=O)Nc4ccc(F)cc4)cc3C(=O)N([C@H](C)CO)C[C@H]2C)cc1 returned Six1-Eya2 inh 16, D2 ag -12, TRPML1 ag -0.1, PINK1 modulator 1.4%, CtBP-E1A blk 4 and D2 PAM -11.
For O=C(Nc1nonc1-c1ccc(Cl)cc1)c1ccco1 the results were Six1-Eya2 inh 5, D2 ag 3.3, TRPML1 ag 0.9, PINK1 modulator -1.0% and D2 PAM -1.
Screening COc1ccc(-c2nc3c([nH]2)c(=O)n(C)c(=O)n3C)c(OC)c1 returned Six1-Eya2 inh -2, D2 ag -3.4, TRPML1 ag 1.4, PINK1 modulator 8.7%[38.3 µM], CtBP-E1A blk 3 and D2 PAM -1.
CC(C)(C)Cc1c(C2CCCCC2)nc2ccc(Cl)cn12 was read as Six1-Eya2 inh 10, D2 ag -6.7, TRPML1 ag -0.2, PINK1 modulator inconclusive, CtBP-E1A blk 13 and D2 PAM -2.
For Cc1cc(C)c(S(=O)(=O)Nc2ccc(-c3cn4ccccc4n3)cc2)c(C)c1 the results were Six1-Eya2 inh inconclusive, D2 ag -13, TRPML1 ag -0.4, PINK1 modulator -1.1%, CtBP-E1A blk inconclusive and D2 PAM 0.
For Cc1ccc2c(c1)[C@H]1[C@H](CO2)[C@H](c2ccccc2)[C@]2(C)C(=O)Nc3cc(F)ccc3C(=O)N12 the results were Six1-Eya2 inh -14, D2 ag -2.3, TRPML1 ag -0.6, PINK1 modulator 1.5%, CtBP-E1A blk -3 and D2 PAM -57.
`CCOC(=O)c1cccc(NC(=O)CNS(=O)(=O)c2cccs2)c1` gave Six1-Eya2 inh 2, D2 ag -2.8, TRPML1 ag -0.8, PINK1 modulator -2.7%, CtBP-E1A blk 4 and D2 PAM -4.
COc1cc(OC)c(C2N(c3ccccn3)C(=O)C3CCCN32)cc1OC (configuration not stated) was read as Six1-Eya2 inh 2, D2 ag -3.2, TRPML1 ag 1.4, PINK1 modulator inconclusive, CtBP-E1A blk -15 and D2 PAM -4.
`Cc1ccccc1C(=O)Nc1ccc(S(=O)(=O)Nc2onc(C)c2C)cc1` gave Six1-Eya2 inh 3, D2 ag -1.7, TRPML1 ag -0.2, PINK1 modulator -0.2%, CtBP-E1A blk 5 and D2 PAM -6.
For COC(=O)c1ccc(OCCOc2ccc(C(=O)OC)cc2)cc1 the results were Six1-Eya2 inh 8, D2 ag -2.4, TRPML1 ag -1.2, PINK1 modulator -0.7%, CtBP-E1A blk 5 and D2 PAM 0.
For CC(C)(C)n1nnnc1C(c1ccccc1)N1CCN(c2ncccc2C(F)(F)F)CC1 (configuration not stated) the results were Six1-Eya2 inh -7&-6, TRPML1 ag inconclusive, PINK1 modulator 2.7%&1.5% and CtBP-E1A blk 0&1.
For COc1ccccc1Cn1c(=S)[nH]c2cc(C(=O)N3CCCC(C)C3)ccc2c1=O (configuration not stated) the results were Six1-Eya2 inh -1, D2 ag -4.6, TRPML1 ag 0.6, PINK1 modulator 4.2%, CtBP-E1A blk -2 and D2 PAM -9.
For O=C(Cc1ccc(Cl)c(Cl)c1)Nc1cccnc1 the results were Six1-Eya2 inh -4, D2 ag -2.8, TRPML1 ag -0.2, PINK1 modulator 2.0%, CtBP-E1A blk 0 and D2 PAM 0.
`CCc1noc(C)c1C(=O)Nc1nnc(CC(C)C)s1` gave Six1-Eya2 inh 3, D2 ag 1.3, TRPML1 ag -0.9, PINK1 modulator 0.0%, CtBP-E1A blk 6 and D2 PAM 3.

5 structures from above, sorted by SMILES length, low to high:
For O=C(Cc1ccc(Cl)c(Cl)c1)Nc1cccnc1 the results were Six1-Eya2 inh -4, D2 ag -2.8, TRPML1 ag -0.2, PINK1 modulator 2.0%, CtBP-E1A blk 0 and D2 PAM 0.
`CCc1noc(C)c1C(=O)Nc1nnc(CC(C)C)s1` gave Six1-Eya2 inh 3, D2 ag 1.3, TRPML1 ag -0.9, PINK1 modulator 0.0%, CtBP-E1A blk 6 and D2 PAM 3.
COc1cc(OC)c(C2N(c3ccccn3)C(=O)C3CCCN32)cc1OC (configuration not stated) was read as Six1-Eya2 inh 2, D2 ag -3.2, TRPML1 ag 1.4, PINK1 modulator inconclusive, CtBP-E1A blk -15 and D2 PAM -4.
`Cc1ccccc1C(=O)Nc1ccc(S(=O)(=O)Nc2onc(C)c2C)cc1` gave Six1-Eya2 inh 3, D2 ag -1.7, TRPML1 ag -0.2, PINK1 modulator -0.2%, CtBP-E1A blk 5 and D2 PAM -6.
For Cc1ccc2c(c1)[C@H]1[C@H](CO2)[C@H](c2ccccc2)[C@]2(C)C(=O)Nc3cc(F)ccc3C(=O)N12 the results were Six1-Eya2 inh -14, D2 ag -2.3, TRPML1 ag -0.6, PINK1 modulator 1.5%, CtBP-E1A blk -3 and D2 PAM -57.

(more compounds)
O=C(CCl)N(c1ccc(Cl)cc1)c1c[nH]c2ccccc12 was read as Six1-Eya2 inh -2, D2 ag -2.5, TRPML1 ag 6.7, PINK1 modulator -1.5%, CtBP-E1A blk 9 and D2 PAM -6.
CCN(CC)C(=O)c1cn(C)c(=O)c2cc(OC)c(OC)cc12 was read as Six1-Eya2 inh -7, D2 ag -4.9, TRPML1 ag -0.6, PINK1 modulator -5.6%, CtBP-E1A blk -19 and D2 PAM -3.
For CCN(CC)S(=O)(=O)c1ccc(N2CCOCC2)c(NC(=O)C2CC2)c1 the results were Six1-Eya2 inh 0, D2 ag 1.4, TRPML1 ag 0.3, PINK1 modulator 2.3%, CtBP-E1A blk 7 and D2 PAM -6.
For O=C1N/C(=N\N=C\c2ccccn2)SC1Cc1cccc(SC(F)F)c1 (configuration not stated) the results were Six1-Eya2 inh 0, D2 ag -4.2, TRPML1 ag 0.5, PINK1 modulator 3.0%, CtBP-E1A blk -13 and D2 PAM -36.
`COc1ccccc1N1CCN(C(=O)c2ccccc2SCC(=O)NCc2ccco2)CC1` gave Six1-Eya2 inh 6, D2 ag -1.5, TRPML1 ag -0.4, PINK1 modulator 1.6%, CtBP-E1A blk -7 and D2 PAM 6.
N#Cc1c(-c2ccco2)nc(SCC(=O)Nc2cccc(Cl)c2)[nH]c1=O was read as Six1-Eya2 inh -1, D2 ag -0.6, TRPML1 ag 0.2, CtBP-E1A blk 6 and D2 PAM -16.
COc1ccc(C2CC(c3ccccc3)=NN2C(=O)COC(=O)c2cccc(S(=O)(=O)N(C)C)c2)cc1 (configuration not stated) was read as Six1-Eya2 inh 0, D2 ag -4.2, TRPML1 ag 2.4, PINK1 modulator 2.3%, CtBP-E1A blk -11 and D2 PAM -12.
OCCN1CCN(c2nc(NCc3ccco3)c3ccccc3n2)CC1 was read as Six1-Eya2 inh -5, D2 ag -2.0, TRPML1 ag 0.6, PINK1 modulator -1.2%, CtBP-E1A blk -7 and D2 PAM -16.
COc1ccc(C(=O)NNc2ccccc2)cc1OC was read as Six1-Eya2 inh 4, D2 ag -3.9, TRPML1 ag 0.2, PINK1 modulator 3.1%, CtBP-E1A blk -8 and D2 PAM -29.
CC(C)C(=O)C1=Cc2cc([N+](=O)[O-])ccc2OC1N1CCOCC1 (configuration not stated) was read as Six1-Eya2 inh -6, D2 ag -4.4, TRPML1 ag -0.6, PINK1 modulator -1.0% and D2 PAM -23.
Screening COC(=O)c1oc2ccc(Br)cc2c1NC(C)=O returned Six1-Eya2 inh -2, D2 ag -1.9, TRPML1 ag -0.2, PINK1 modulator 1.7%, CtBP-E1A blk 2 and D2 PAM -2.

Compound activity as filed in PubChem.
